# VDR inhibitor – Inhibitors of the vitamin D receptor (VDR): qHTS; AID 504847, 2011; VDR-SRC2-3 peptide fluorescence polarization, 2 h; Potency, µM, for the others: max response, negative = inhibition, hits mostly inhibitors; 400,000 tested, 0.93% active; active = well fitted inhibition curve with a large enough effect; inconclusive = small, poorly fitted or top-dose-only effect, or another doubt; inactive = no such curve, though single readings can be large or run the other way; note: series mostly up to about 120 µM
# Target sequence (P11473 whole entry, looked up): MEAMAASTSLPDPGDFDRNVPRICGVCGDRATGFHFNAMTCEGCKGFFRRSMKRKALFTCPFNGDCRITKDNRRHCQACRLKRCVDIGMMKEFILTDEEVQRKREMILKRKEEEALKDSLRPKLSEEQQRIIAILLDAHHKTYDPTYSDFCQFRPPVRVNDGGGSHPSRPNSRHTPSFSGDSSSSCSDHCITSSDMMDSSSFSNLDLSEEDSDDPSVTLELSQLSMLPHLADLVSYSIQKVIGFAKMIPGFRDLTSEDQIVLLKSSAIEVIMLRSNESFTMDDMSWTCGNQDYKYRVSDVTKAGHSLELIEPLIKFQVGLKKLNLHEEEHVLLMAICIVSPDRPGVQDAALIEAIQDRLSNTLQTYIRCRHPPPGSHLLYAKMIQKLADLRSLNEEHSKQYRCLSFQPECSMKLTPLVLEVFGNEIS
#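 Inhibition of the VDR/SRC2-3 peptide interaction is quantified by fluorescence polarization. Compounds (23 nl, pintool) incubate with the reagents for 2 hours at ambient room temperature.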
# Numbers without * were called inactive; ? = inconclusive; & = joins results of further samples. % is set by controls: 0 for no effect and ±100 for the full control effect; potency is the fitted concentration of half-maximal effect. Some of the compounds tested (hit frequency here may not be typical).
COc1ccc(CCNC(=O)CCN2C(=O)COc3ccc(C)cc32)cc1OC
  VDR inhibitor: ?
Cc1ccc(C(=O)NCC(=O)Nc2ccncc2)cc1
  VDR inhibitor: 12.1%
Cc1cc(C)n2nc(SCC(=O)N/N=C/c3ccccn3)nc2n1
  VDR inhibitor: -13.2%
COc1ccc(OC)c(/C=c2\sc3nc(-c4cccs4)nn3c2=O)c1
  VDR inhibitor: -13.9%
CSc1nc(N)nc2c1ncn2CC(=O)N[C@H](C)c1cccc2ccccc12
  VDR inhibitor: -4.6%
C=C(C)C1CCC2(C(=O)O)CCC3(C)C(CCC4C5(C)C(C=O)C(O)C(C)(C)C5CCC43C)C12 (stereo not drawn)
  VDR inhibitor: -4.0%
O=C(NC1CCCCC1)C(c1ccc(F)cc1)N(Cc1ccco1)C(=O)c1ccccn1 (stereo not drawn)
  VDR inhibitor: 2.9%
CC(C)OCCCNC(=O)CCC(=O)NNc1nc2ccccc2c2nc(-c3ccccc3)nn12
  VDR inhibitor: -24.5%
COc1cc(C#Cc2ccc3cc(C(C)(C)O)oc(=O)c3c2)cc(OC)c1
  VDR inhibitor: -3.9%
COC(=O)C1CCc2c(ccc3c2CCCC3)C1=O (stereo not drawn)
  VDR inhibitor: 2.9%
Nc1nc(SCC(=O)NCCC(c2ccccc2)c2ccccc2)n[nH]1
  VDR inhibitor: 5.8%
COc1ccccc1-c1ccc2ncnc(NCCN3CCOCC3)c2c1
  VDR inhibitor: ?
CCN1CCN(CCc2nc3cc([N+](=O)[O-])ccc3n2C)CC1
  VDR inhibitor: 5.3%
COc1ccccc1CNC(=O)COc1ccc(Br)c(C)c1
  VDR inhibitor: -27.4%
Cc1ccc(C(=O)Nc2nnc(S(=O)(=O)N3CCN(c4ccc(F)cc4)CC3)s2)cc1
  VDR inhibitor: -3.0%&-4.4%
Cc1onc(-c2ccccc2)c1C(=O)Nc1nnc(N(C)Cc2ccccc2)s1
  VDR inhibitor: -4.4%
COc1cc(C=NNc2ccc(S(=O)(=O)Nc3ccccc3C(=O)O)cc2[N+](=O)[O-])ccc1O
  VDR inhibitor: ?
Cc1nn2c(=O)cc(COC(=O)c3cccc(NC(=O)c4cccs4)c3)nc2s1
  VDR inhibitor: 8.3%
COc1cccc(NC(=O)COC(=O)CC(NC(N)=O)c2ccc(Cl)cc2)c1 (stereo not drawn)
  VDR inhibitor: -0.9%
CN=C1S/C(=C\c2ccc(N3CCOCC3)c(F)c2)C(=O)N1C
  VDR inhibitor: -3.8%
O=C(Nc1ncccc1Cl)c1ccccc1F
  VDR inhibitor: 0.6%
Cc1ccccc1C(=O)NCCCNC(=O)c1cnccn1
  VDR inhibitor: -7.7%
CC(C)Oc1ccc(CCc2n[nH]c(=S)n2-c2ccccc2)cc1
  VDR inhibitor: -7.8%
Cc1ccc(Oc2ccc(-c3nc(N)nc(N)n3)cc2)cc1C
  VDR inhibitor: 10.8%
Cc1nc2ccccc2c2oc(C(=O)NCCCN3CCC(C)CC3)cc12
  VDR inhibitor: -2.9%

# Shown as comma-separated lines: part of the list above.
compound,VDR inhibitor
COc1ccccc1-c1ccc2ncnc(NCCN3CCOCC3)c2c1,?
CCN1CCN(CCc2nc3cc([N+](=O)[O-])ccc3n2C)CC1,5.3%
COc1ccccc1CNC(=O)COc1ccc(Br)c(C)c1,-27.4%
Cc1ccc(C(=O)Nc2nnc(S(=O)(=O)N3CCN(c4ccc(F)cc4)CC3)s2)cc1,-3.0%&-4.4%
Cc1onc(-c2ccccc2)c1C(=O)Nc1nnc(N(C)Cc2ccccc2)s1,-4.4%

# Additional entries follow.
COc1ccccc1C(=O)NNC(=O)C(=O)Nc1ccc(C)c(Cl)c1
  VDR inhibitor: -22.1%
COc1cc(C(=O)Nc2ccc(OCc3cc(=O)n4cccc(C)c4n3)cc2)cc(OC)c1OC
  VDR inhibitor: 11.9%
CCCCOc1ccc(C(=O)Nc2ccc3c(c2)CCCN3C(=O)c2cccs2)cc1
  VDR inhibitor: 3.9%
Cc1ccc(C)c(OCC(=O)NC(Cc2c[nH]c3ccccc23)C(=O)O)c1 (stereo not drawn)
  VDR inhibitor: -3.9%
CCOc1ccc(-n2cnnn2)cc1S(=O)(=O)NCCc1ccc(OC)c(OC)c1
  VDR inhibitor: 27.3%
CN1CCC(Oc2ccc(Sc3ccccc3)cc2)CC1
  VDR inhibitor: 0.1%
CCN1CCN(CCCN(Cc2ccco2)C(=S)Nc2cc(Cl)ccc2C)CC1
  VDR inhibitor: -16.2%
CCCNc1ncnc2onc(C)c12
  VDR inhibitor: 5.6%&0.7%
O=C(CN1CCSC1=O)N1CCN(S(=O)(=O)c2ccc(Cl)cc2)CC1
  VDR inhibitor: -7.1%
COC(=O)C1CCN(C(=O)c2sc3nc(-c4ccc(F)cc4)cn3c2C)CC1
  VDR inhibitor: -22.7%
O=C(NC(=S)NCCO)c1cn(-c2ccccc2)nc1-c1ccccc1
  VDR inhibitor: -8.0%
O=C(Nc1ccc([N+](=O)[O-])cn1)c1cc(-c2cccc(Br)c2)nc2ccccc12
  VDR inhibitor: -3.7%
CC1(C)CC(=O)C(Sc2ccccc2)=C(O)C1
  VDR inhibitor: -14.4%
COc1ccc(/C=C/CN2CCN(Cc3cccc(OC)c3)C(CCO)C2)cc1 (stereo not drawn)
  VDR inhibitor: 2.2%
O=C(CNS(=O)(=O)c1cccc2nonc12)NCc1ccc(F)cc1
  VDR inhibitor: 0.2%
O=C(Nc1nnc(SCc2cccnc2)s1)C1CC(=O)N(c2ccc(F)cc2)C1 (stereo not drawn)
  VDR inhibitor: -28.2%
COc1ccc(C(=O)C2CCCN(C(=O)c3ccc(OC)o3)C2)c(C)c1 (stereo not drawn)
  VDR inhibitor: -23.6%
O=C(NN=Cc1ccccc1C(=O)O)C(=O)NN=Cc1ccccc1C(=O)O
  VDR inhibitor: 0.8%
Cc1cc(C)nc(-n2nc(C)c3c2NC(=O)CC3c2cccc(O)c2)n1 (stereo not drawn)
  VDR inhibitor: 26.7%
Cc1ccc(Cl)cc1-n1ncc2c(N3CCN(Cc4ccccc4)CC3)ncnc21
  VDR inhibitor: -9.9%
COc1ccc(NC(=O)CC2C(=O)N(c3ccc(F)cc3)C(=O)N2Cc2ccc3c(c2)OCO3)cc1 (stereo not drawn)
  VDR inhibitor: ?
CCn1c(COc2ccc(OC)cc2)nc2ccccc21
  VDR inhibitor: 1.5%
COc1ccc(CCNC(=O)C2CC3Cn4c(nc5cc(Cl)c(Cl)cc54)C3N2C)cc1 (stereo not drawn)
  VDR inhibitor: 2.7%
CCCN[C@@H](C)C(=O)Nc1ccccc1C
  VDR inhibitor: 13.6%
COc1cccc(CC(NC(C)=O)C(=O)NC2CCN(C(=O)c3ccncc3)CC2)c1OC (stereo not drawn)
  VDR inhibitor: -7.2%

# Quoted from the listing.
# In VDR inhibitor, `O=C(CNS(=O)(=O)c1cccc2nonc12)NCc1ccc(F)cc1` is entered as 0.2%
# In VDR inhibitor, `COc1cccc(NC(=O)COC(=O)CC(NC(N)=O)c2ccc(Cl)cc2)c1` (stereo not drawn) is entered as -0.9%

# Following part.
C[C@]12C(=O)N(c3cccc(Cl)c3)C(=O)N1[C@@H]1c3ccccc3OC[C@@H]1[C@H]2c1ccccc1
  VDR inhibitor: -11.2%
Cc1ccc(N2CCN(/N=C/c3cccnc3)CC2)cc1
  VDR inhibitor: 6.5%
CCCCCCc1cc2cc(S(=O)(=O)c3ccc(F)cc3)c(=O)oc2cc1O
  VDR inhibitor: -21.1%
Cc1ccc(N2CN(S(=O)(=O)c3cccc([N+](=O)[O-])c3)c3nc4ccccc4nc32)cc1
  VDR inhibitor: -3.7%
O=C(Nc1ccc(Cl)c(Cl)c1)OCc1cnc(Cl)s1
  VDR inhibitor: 6.7%
Cc1cc(-c2nc3ncccc3o2)ccc1NC(=O)c1ccc([N+](=O)[O-])o1
  VDR inhibitor: 6.1%
COC(=O)C1=NNC2(c3ccc(Cl)cc3)C(=O)N(c3ccccc3)C(=O)C12 (stereo not drawn)
  VDR inhibitor: 0.2%
C=CCNC(=S)NCc1cccnc1
  VDR inhibitor: -4.9%
CCOC(=O)/C=c1\s/c(=C\c2ccc(-c3ccccc3)cc2)c(=O)n1CC(=O)NCc1ccc2c(c1)OCO2
  VDR inhibitor: 7.0%
COc1ccc(/C=N/NC(=O)c2ccncc2)c(C(=O)O)c1OC
  VDR inhibitor: 16.4%&0.7%
COc1ccc(S(=O)(=O)N(CC(=O)NCc2cccnc2)C2CCCCC2)cc1OC
  VDR inhibitor: -14.0%
COc1ccc(C(=O)Nc2ccc(NC(=O)c3ccco3)c(Cl)c2)cc1OC
  VDR inhibitor: 3.2%
CCC(CC)C(=O)Nc1ccc(OCc2cc(=O)n3c4c(sc3n2)CCCC4)cc1
  VDR inhibitor: -1.7%
Cc1ccc(S(=O)(=O)Nc2ccc(O)c3ncccc23)cc1
  VDR inhibitor: -10.3%
COc1ccc(N2CCN(C(=O)CSc3nc(-c4ccccc4)no3)CC2)cc1
  VDR inhibitor: 4.4%
CCCCCN(C(=O)CCC(=O)OCc1cc(C)ccc1C)c1c(N)n(CCCC)c(=O)[nH]c1=O
  VDR inhibitor: -5.1%
COc1cc(NC(=O)c2ccco2)c(OC)cc1NC(=O)Nc1ccccc1Cl
  VDR inhibitor: -2.4%
COc1ccc(OC)c(C(=O)N(C[C@H]2CC[C@@H]([C@@H]3CC[C@H](CO)O3)O2)C(C(=O)NC(C)(C)C)c2ccc(-c3ccccc3)cc2)c1 (stereo partly drawn)
  VDR inhibitor: 22.3%
O=c1cnc2cnc(Oc3ccccc3)nc2n1Cc1cccs1
  VDR inhibitor: ?
O=C1N2CCSC2=NC1(Nc1nccs1)C(F)(F)F (stereo not drawn)
  VDR inhibitor: 1.1%
Cc1ccc(C(C(=O)NC(C)(C)C)N(C(=O)c2csnn2)c2ccccc2F)o1 (stereo not drawn)
  VDR inhibitor: -3.9%
CC#C[C@@H](CC)c1ccc2ccn(C)c2c1
  VDR inhibitor: -10.5%
Cc1cc(C)nc(SCc2ccc([N+](=O)[O-])cc2)n1
  VDR inhibitor: 5.2%
CC(C)(C)C(=O)NC(NC(=S)Nc1sc2c(c1C#N)CCCC2)C(Cl)(Cl)Cl (stereo not drawn)
  VDR inhibitor: -4.1%
CNC(=O)COC(=O)c1cc(SC)ccc1Cl
  VDR inhibitor: -12.8%

# Compounds shown so far that have bromine (two):
COc1ccccc1CNC(=O)COc1ccc(Br)c(C)c1
  VDR inhibitor: -27.4%
O=C(Nc1ccc([N+](=O)[O-])cn1)c1cc(-c2cccc(Br)c2)nc2ccccc12
  VDR inhibitor: -3.7%

# Returning to the listing with the two entries that preceded the break.
CC(C)(C)C(=O)NC(NC(=S)Nc1sc2c(c1C#N)CCCC2)C(Cl)(Cl)Cl (stereo not drawn)
  VDR inhibitor: -4.1%
CNC(=O)COC(=O)c1cc(SC)ccc1Cl
  VDR inhibitor: -12.8%
O=C(COc1ccccc1O)N1CCN(C(=O)c2ccco2)CC1
  VDR inhibitor: 15.0%
O=C(NCc1ccco1)c1cccc(Nc2nc3ccc(Br)cc3[nH]2)c1
  VDR inhibitor: -12.6%
O=C1C2C3C=CC(C3)C2C(=O)N1c1cccc(N2C(=O)C3C4C=CC(C4)C3C2=O)n1 (stereo not drawn)
  VDR inhibitor: 0.7%
COCC1=C(C(=O)OC)C(c2cccs2)n2ncnc2N1 (stereo not drawn)
  VDR inhibitor: 1.5%
CNS(=O)(=O)c1cn(CC(=O)N2CCN(c3cccc(C)c3C)CC2)cc1S(=O)(=O)NC
  VDR inhibitor: 5.7%
Cc1ccc(-n2c(SCC(=O)NCc3ccc4c(c3)OCO4)nnc2-c2cccnc2)c(C)c1
  VDR inhibitor: -4.4%
CCn1c(=O)c([N+](=O)[O-])c(NCC2CCCO2)c2ccccc21 (stereo not drawn)
  VDR inhibitor: 6.5%
Cc1cccc(Cn2nc(C(C)(C)C)cc2C(=O)Nc2ccc(F)cc2)c1
  VDR inhibitor: 3.4%
CCCOc1ccc(CNC(=O)CN2C(=O)c3cccnc3Oc3ccc(C)cc32)cc1
  VDR inhibitor: 9.2%
CN(CC(=O)Nc1ccccc1C(F)(F)F)C(=O)c1ccccc1Sc1ccccc1C#N
  VDR inhibitor: -1.1%
CCc1nn2c(=O)cc(COC(=O)CNC(=O)c3ccccc3)nc2s1
  VDR inhibitor: 7.9%
CC(=O)C1=C(c2ccc(Cl)c(Cl)c2)N(C(C)=O)n2c(C)nnc2S1
  VDR inhibitor: -6.5%
CCOc1cc(S(=O)(=O)n2ccc(C)n2)ccc1Br
  VDR inhibitor: -13.8%
O=C(NCC1CCCO1)c1cc2nc(-c3ccco3)cc(C(F)(F)Cl)n2n1 (stereo not drawn)
  VDR inhibitor: -13.8%
Cc1cc(C)nc(SCc2cn3c(C)cccc3n2)n1
  VDR inhibitor: -6.3%
C=CCNC(=S)/C(=C(/[O-])c1ccccc1Br)[n+]1ccccc1
  VDR inhibitor: -0.2%
O=S(=O)(c1ccc(S(=O)(=O)N2CCN3CCCC3C2)cc1)N1CCCC1 (stereo not drawn)
  VDR inhibitor: 2.1%
COc1ccc(CC(=O)Nc2c(C(=O)Nc3ccc(F)cc3)oc3ccccc23)cc1OC
  VDR inhibitor: 8.3%
Cc1ccc(-c2nnc(CSc3nc4cc5c(cc4cc3C)OCO5)o2)cc1
  VDR inhibitor: 9.0%
COc1ccc(-n2c(CN3CCOCC3)nc3ccc([N+](=O)[O-])cc3c2=O)c(OC)c1
  VDR inhibitor: -14.6%
Cc1cccc(C(=O)Nc2oc(-c3ccccc3)cc2C#N)c1
  VDR inhibitor: 4.8%
C#CCOCCOCCOCCNc1nc(N2CCN(C(=O)[C@H](Cc3ccc(O)cc3)n3cc(C(N)CC(C)C)nn3)CC2)nc(N2CCN(C(=O)[C@H](CCC(=O)O)n3cc(C(N)[C@H](C)CC)nn3)CC2)n1 (stereo partly drawn)
  VDR inhibitor: -19.7%
CCCS(=O)(=O)N1CCC(n2c(C)nc3cccnc32)CC1
  VDR inhibitor: -4.5%

# Screens: PubChem BioAssay, National Center for Advancing Translational Sciences (NCATS)
